NPYLR7 agonist: activates Aedes aegypti NPYLR7 receptor. HEK293T NPYLR7/Galpha15, GCaMP6s calcium fluorescence. activation, % at 10 µM. 270,000 compounds, 0.15% hits. AID 1259423; in the data active = activation above about 40%;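 note: 0% = vehicle and 100% = reference agonist at the receptor; some compounds past the cut are filed as inactive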
NPYLR7 agonist max-min: also measured in NPYLR7 agonist; calls as there; activation, %; measured here: Max-Min RFU normalised activation; some inactives read as strong as hits;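 span of the calcium signal over five minutes; 0% = vehicle and 100% = native peptide agonist; compound fluorescence can raise it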
* = called active by the depositor; & = joins results of further samples. Not all compounds are listed; rates above refer to the full screens.

Each structure is followed by: NPYLR7 agonist	NPYLR7 agonist max-min
- CC(C)(CO)C(O)C(=O)NCCCO (stereo not drawn)
  -3	-9
- O=C(NCCCn1nc(-c2ccncc2)ccc1=O)C1c2ccccc2Oc2ccccc21
  16	10
- O=C(NC[C@H](O)CO)c1ccncc1Nc1ccc(I)cc1F
  -3	-1
- CCc1nc(-c2cccc(C)c2)c(-c2ccnc(NC(=O)c3ccccc3)c2)s1
  -6	-8
- Cn1c(=O)n(-c2ccc(C(C)(C)C#N)cc2)c2c3cc(-c4cnc5ccccc5c4)ccc3ncc21
  -16	-17
- Cc1[nH]nc2ccc(-c3cncc(OC[C@@H](N)Cc4ccccc4)c3)cc12
  0	-7
- CNC(=O)c1ccccc1Nc1nc(Nc2ccc(N3CCOCC3)cc2OC)ncc1Cl
  25	2
- c1cncc(CN2CCC(n3ncc4c(N5CCOCC5)nc(-c5ccc6[nH]ccc6c5)nc43)CC2)c1
  -9	-16
- COC(=O)C1CCN(S(=O)(=O)CCCOc2cccc3c2OC(C)(C)C3)CC1
  7	9
- O=C(Nc1ccccc1Br)N[C@@H]1CCN(c2ccc(C(F)(F)F)cn2)C1
  -2	-9
- COc1cc(Nc2ncc3c(n2)-c2ccc(Cl)cc2C(c2c(F)cccc2OC)=NC3)ccc1C(=O)O
  -13	-16
- CCc1cncnc1N1CCN(Cc2nc3ccc(C(F)(F)F)cc3[nH]2)CC1
  -7	-14
- Cc1cc(=O)n(-c2ccccc2)[nH]1
  -7	-16
- O=C(Nc1ccccc1)Nc1ccc(-c2ccc(C(=O)[C@@H]3CCC[C@H]3C(=O)O)cc2)cc1
  0	-7
- COc1c(O)cc2c(c1O)[C@H]1O[C@H](CO)[C@@H](O)[C@H](O)[C@@H]1OC2=O
  1&-8	-8&-13
- CCCCOc1ccc(CC(=O)NO)cc1
  -12&-2	-17&-5
- NCCNC(=O)c1ccc(Cl)cn1
  -20	-35
- CCOC(=O)NNc1nncc2ccccc12
  -6&-12&-1	-9&-18&-8
- CC(C)(C)c1nnc(NS(=O)(=O)c2ccccc2)s1
  -28	-33
- Cc1cccc(Nc2cc(Cl)nc(SCC(=O)O)n2)c1C
  -10	-17
- CCCCCC(=O)O[C@]1(C(C)=O)CCC2C3CCC4=CC(=O)CC[C@]4(C)C3CC[C@@]21C (stereo partly drawn)
  -3	-10
- O=C(Nc1ncc(SCCN2CCCC2)s1)[C@]1(c2ccc(S(=O)(=O)C3CC3)cc2)C[C@H]1C1CCCCC1
  -8	-14
- OCc1ccccn1
  4	7
- CCC(=O)O[C@]1(C(=O)SCF)[C@H](C)C[C@H]2[C@@H]3C[C@H](F)C4=CC(=O)C=C[C@]4(C)[C@@]3(F)[C@@H](O)C[C@@]21C
  14&-9	-2&-14
- Oc1cc2c(cc1O)[C@@H]1c3ccc(O)c(O)c3OC[C@]1(O)C2
  2	1
- Nc1c2c(nc3ccccc13)CCCC2O (stereo not drawn)
  -3&0&-10	-7&-25&-16
- COC(=O)c1ccc2c(C(=Nc3ccc(N(C)C(=O)CN4CCN(C)CC4)cc3)c3ccccc3)c(O)[nH]c2c1
  -14	-17
- O=C(CS(=O)Cc1ccco1)NC/C=C\COc1cc(CN2CCCCC2)ccn1 (stereo not drawn)
  -2	-4
- COc1cc(NC(=O)c2ccc(-c3ccc(Cl)cc3)o2)cc(OC)c1
  3	-7
- CN(C)CC(=O)Nc1ccc2[nH]c(=O)c3ccccc3c2c1
  -5	-9

Entries of single compounds, looked up by structure. Order of screens: NPYLR7 agonist | NPYLR7 agonist max-min
`O=C(CS(=O)Cc1ccco1)NC/C=C\COc1cc(CN2CCCCC2)ccn1` (stereo not drawn) as listed: -2 | -4
`COc1cc(NC(=O)c2ccc(-c3ccc(Cl)cc3)o2)cc(OC)c1` as listed: 3 | -7
`CCC(=O)O[C@]1(C(=O)SCF)[C@H](C)C[C@H]2[C@@H]3C[C@H](F)C4=CC(=O)C=C[C@]4(C)[C@@]3(F)[C@@H](O)C[C@@]21C` as listed: 14&-9 | -2&-14

Another view of some results above.
CC(C)(C)c1nnc(NS(=O)(=O)c2ccccc2)s1
  NPYLR7 agonist = -28; NPYLR7 agonist max-min = -33

Cc1cccc(Nc2cc(Cl)nc(SCC(=O)O)n2)c1C
  NPYLR7 agonist = -10; NPYLR7 agonist max-min = -17

Next section.
Each structure is followed by: NPYLR7 agonist	NPYLR7 agonist max-min
- COc1cc([C@H]2Oc3cc([C@H]4Oc5cc(O)cc(O)c5C(=O)[C@@H]4O)ccc3O[C@@H]2CO)ccc1O
  -10	-17
- Cc1cc(C)cc(NC(=O)Nc2nccn(-c3ccc(Br)cc3)c2=O)c1
  -2	-5
- CC[C@@H]1C(=O)N(C)c2cnc(Nc3ccc(C(=O)NC4CCC(N5CCN(CC6CC6)CC5)CC4)cc3OC)nc2N1C(C)C (stereo partly drawn)
  -8	-8
- CCOC(=O)c1ccc(N2C=C(C(=O)N3CCCC3)S(=O)(=O)c3ccc(F)cc32)cc1
  1	2
- CCN1CCN(Cc2ccc(-c3cc4c(N[C@H](C)c5ccccc5)ncnc4[nH]3)cc2)CC1
  -9	-14
- COc1cc2ncnc(Oc3cccc(NC(=O)Nc4cc(C(C)(C)C(F)(F)F)on4)c3)c2cc1OC
  21	6
- Cc1cc(C)cc(OCC2CNC(=O)O2)c1 (stereo not drawn)
  -24	-29
- CC(=O)Nc1ccc(S(=O)(=O)Nc2cc(C)on2)cc1
  0	0
- NC(N)=NCCCC(N)C(=O)O (stereo not drawn)
  2&0	0&-2
- Nc1ncnc2nc[nH]c12
  -8&-4	-15&-9
- CCn1cc(C(=O)O)c(=O)c2cc(F)c(N3CCNCC3)nc21
  -13	-17
- COc1ccc2ccc(=O)oc2c1
  -1	-3
- CCCCCCc1ccc(O)cc1O
  -8	-13
- Cc1cccc(C)c1NC(=O)C1CCCCN1C (stereo not drawn)
  -8&-7&-9	-13&-7&-10
- CN1CCN(C2CCN(C(=O)Nc3cc(Oc4ccc(NC(=O)C5(C(=O)Nc6ccc(F)cc6)CC5)c(F)c4)ccn3)CC2)CC1
  2	-4
- COc1ccc2nc(NC(=O)Nc3ccccc3)sc2c1
  -16	-28
- NC1(c2ccc(-c3nc4ccn5c(=O)[nH]nc5c4cc3-c3ccccc3)cc2)CCC1
  -1	-8
- CCCCC1C(=O)N(c2ccccc2)N(c2ccccc2)C1=O
  -10&4	-15&-22
- O=c1cc(-c2ccc(O)cc2)oc2cc(O[C@@H]3O[C@H](CO)[C@@H](O)[C@H](O)[C@H]3O[C@@H]3OC[C@](O)(CO)[C@H]3O)cc(O)c12
  -2	-5
- CC(C)n1nc(-c2ccc3oc(N)nc3c2)c2c(N)ncnc21
  3	0
- CC(=O)c1c(C)c2cnc(Nc3ccc(N4CCNCC4)cn3)nc2n(C2CCCC2)c1=O
  -9&-13	-16&-17
- Cc1cc2c(cc1CC(=O)c1sccc1S(=O)(=O)Nc1onc(C)c1Cl)OCO2
  1	-7
- COc1ccc(-c2cnc3c(-c4cccc5ncccc45)cnn3c2)cc1
  -7	-12
- CC(C)Oc1ccc(-c2cnc3c(-c4ccnc5ccccc45)cnn3c2)cc1
  5	-1
- C#C[C@]1(O)CCC2C3CCC4=CC(=O)CC[C@@H]4C3CC[C@@]21CC (stereo partly drawn)
  -4	-10
- N#Cc1ccc2[nH]cc(CCCCN3CCN(c4ccc5oc(C(N)=O)cc5c4)CC3)c2c1
  18	3
- COc1ccccc1OCCNCC(O)COc1cccc2[nH]c3ccccc3c12 (stereo not drawn)
  -7&-20	-15&-30
- CC(=O)Nc1ccccc1
  -12	-19
- O=C(O)c1ccc2c(c1)nc(Nc1cccc(Cl)c1)c1ccncc12
  -11	-17
- Cc1ccc2nc(NCCN)c3ncc(C)n3c2c1
  -10	-13

Reprinted at random: 3 entries already listed.
Each structure is followed by: NPYLR7 agonist	NPYLR7 agonist max-min
- CC(=O)c1c(C)c2cnc(Nc3ccc(N4CCNCC4)cn3)nc2n(C2CCCC2)c1=O
  -9&-13	-16&-17
- Cc1cc2c(cc1CC(=O)c1sccc1S(=O)(=O)Nc1onc(C)c1Cl)OCO2
  1	-7
- COc1ccccc1OCCNCC(O)COc1cccc2[nH]c3ccccc3c12 (stereo not drawn)
  -7&-20	-15&-30

Additional compounds follow.
Each structure is followed by: NPYLR7 agonist	NPYLR7 agonist max-min
- Cn1c(=O)c2c(ncn2CCO)n(C)c1=O
  0&0&-11	6&-4&-15
- CN(C)C(=O)[C@H](O)[C@H](Cc1ccccc1)NC(=O)c1cc2cc(Cl)ccc2[nH]1
  1	-3
- Nc1c2ccccc2nc2ccccc12 (tested in a mixture with another compound)
  -26	-27
- O=C(O)Cn1nnc(-c2cc(N3CCC(Oc4cc(F)ccc4Br)CC3)no2)n1
  -1	-7
- C[C@H](Nc1ncnc2nc[nH]c12)c1cc2cccc(Cl)c2c(=O)n1-c1ccccc1
  -1	-6
- COc1ccc(NS(=O)(=O)c2sc3ccc(Cl)cc3c2C)cc1N1CCNCC1
  4	-1
- C[C@H]1[C@H](C)CC[C@]2(C(=O)O[C@@H]3O[C@H](COC4O[C@H](CO)[C@@H](OC5O[C@@H](C)[C@H](O)[C@@H](O)[C@H]5O)[C@H](O)[C@H]4O)[C@@H](O)[C@H](O)[C@H]3O)CC[C@]3(C)C(=CC[C@@H]4[C@@]5(C)C[C@@H](O)[C@H](O)[C@@](C)(CO)C5CC[C@]43C)[C@H]12 (stereo partly drawn)
  13	3
- COC(=O)N1CCN(Cc2cccc(NC(=O)Nc3ccc(C)nc3)c2F)CC1
  -7	-11
- O=C(Nc1c(-c2cccs2)nc2ccccn12)c1ccc(Cl)cc1
  -11	-19
- O=C(NN=Cc1ccc[nH]1)c1cccs1
  -2	-3
- NNC(=O)CP(=O)(c1ccccc1)c1ccccc1
  -10	-16
- O=C1OC(/C=C/c2ccccc2)=NC/1=C/c1cccs1
  -1	-3
- O=C(CSc1nnc2ccccn12)Nc1nc(-c2ccccc2)ns1
  1	6
- COc1ccc(CN2CCN(C(c3ccc(F)cc3)c3ccc(F)cc3)CC2)c(OC)c1OC
  -6&8	-9&9
- CC(C)[C@@H]1CC[C@@H](C)CC1=O
  0	-2
- CNC1CCCN(c2c(F)cc3c(=O)c(C(=O)O)cn(C4CC4)c3c2OC)C1 (stereo not drawn)
  17	13
- NC(N)=NC(=O)Cc1c(Cl)cccc1Cl
  -2&0	-5&-24
- NC(=NCc1ccccc1)NC(=O)c1nc(Cl)c(N)nc1N
  2&-5&6	-4&-9&0
- CCCCCCCC/C=C\CCCCCCCC(=O)O
  -19	-6
- CC1(C)CC(Nc2nc(-c3ccccc3)cs2)CC(C)(C)N1
  -31	-30
- O=C(O)C1(Cc2cccc(Nc3nccs3)n2)CCC(Oc2cccc(Cl)c2F)CC1 (stereo not drawn)
  -7	-12
